HPGD block = qHTS Assay for Inhibitors of HPGD (15-Hydroxyprostaglandin Dehydrogenase); actives 4.3% (n = 150,000); Potency, µM, for the others: at the top dose activity change, negative = inhibition, most hits filed as inhibitors; 15-hydroxyprostaglandin dehydrogenase [NAD(+)] (Homo sapiens), P15428; purified HPGD, NADH fluorescence kinetic, PGE2 substrate; active = well fitted inhibition curve with a large enough effect (not every such curve was filed as active); inconclusive = small, poorly fitted or top-dose-only effect, or another doubt; inactive = no such curve, though single readings can be large or run the other way;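 also: top concentration of the series not given in the record; plate controls included wells without enzyme; inactives centre near -10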
Target sequence (P15428 whole entry, looked up): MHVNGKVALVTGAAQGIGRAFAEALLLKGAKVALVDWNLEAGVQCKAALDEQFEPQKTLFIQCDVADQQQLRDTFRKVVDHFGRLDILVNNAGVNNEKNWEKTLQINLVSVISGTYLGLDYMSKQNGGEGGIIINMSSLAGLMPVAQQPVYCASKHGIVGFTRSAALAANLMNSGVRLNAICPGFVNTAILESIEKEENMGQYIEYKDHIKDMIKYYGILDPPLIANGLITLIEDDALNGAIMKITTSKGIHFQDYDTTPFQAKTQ
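20 nM HPGD preincubated 15 min at room temperature with compound in 50 mM Tris-HCl pH 8, 0.01% Tween 20. Started with 1 mM NAD+ and 30 uM prostaglandin E2; NADH fluorescence (360/450 nm) read 5 times over 30-s intervals, last minus first.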
The depositor's hits bear a star; ? = inconclusive. % is scaled to controls: 0 for no effect and ±100 for the full control effect; potency is read from the fitted curve at half-maximal effect. Not all compounds are listed. The share of hits here may be higher or lower than overall.

HPGD block	Molecule
?	COc1ccccc1-n1c(SCC(=O)O)nnc1-c1ccc(S(=O)(=O)N2CCCCC2)cc1
-15.0%	CC(C)(C)c1ccc(OCCC(=O)Nc2cccc(S(=O)(=O)N3CCCCC3)c2)cc1
4.0%	CC(C)N(CCNC(=O)C1CCC(=O)N1Cc1ccc(F)cc1)Cc1ccccc1 (stereo not given)
-0.3%	CN(C)S(=O)(=O)c1ccc(C(=O)NCCOc2ccccc2)cc1
-12.3%	NC(=O)c1ccc(-n2nnnc2SCC(=O)Nc2ccccc2-c2ccccc2)cc1
-3.4%	Cn1c(SCC(=O)NC2CCCCC2)nnc1-c1cc2ccccc2o1
-10.7%	CCCCOc1cccc(NC(=O)CSc2nncn2C)c1
-3.6%	OC(COc1ccccc1Cl)CN1CCN(CC(O)COc2ccccc2Cl)CC1 (stereo not given)
-14.0%	O=C(CSc1nc2ccccc2s1)Nc1ccc2c(c1)oc1ccccc12
-16.7%	CC(=O)NCC(=O)OCc1ccc([N+](=O)[O-])cc1
-8.2%	CCS(=O)(=O)N1CCCC(C(=O)NCCc2ccc(OC)c(OC)c2)C1 (stereo not given)
-16.9%	COc1ccccc1NC(=O)C(CC=C(Cl)Cl)C(C)=O (stereo not given)
-21.0%	Cc1cc(/C=C(/C#N)C(=O)Nc2ccc(Cl)cc2)c(C)n1-c1cccnc1
?	COc1ccccc1[C@@H]1C(c2ccc(F)cc2)=NN(c2ccccc2)[C@H]1C(=O)N1CCOC1=O
?	Cc1nc2c(=O)n(C)c(=O)[nH]c2n1Cc1ccccc1
-26.7%	O=C(Nc1cnc2sccn2c1=O)c1ccc(Cl)cc1Cl
-5.8%	CCN(CC)S(=O)(=O)c1cccc(C(=O)NC(C(=O)NC2=NCCS2)C(C)C)c1 (stereo not given)
-5.5%	C=CCn1c(Oc2cc(C)ccc2C)nc2c1c(=O)n(C)c(=O)n2C
-1.6%	CCc1ccc(N(C(C)=O)C2C=CS(=O)(=O)C2)cc1 (stereo not given)
?	Cc1ccc(S(=O)(=O)N(C(=O)c2ccco2)c2cc3sc(=O)oc3c3ccccc23)cc1
?	COc1ccc(-c2nc3n(c(=O)c2C#N)CCCS3)cc1
-16.3%	O=C(N/C(=N\O)c1ccccc1)Nc1ccc(Cl)cc1
-11.2%	CC1=C/C(=N\OS(=O)(=O)c2ccccc2)C(C)=CC1=O
-8.0%	CCOC(=O)CSc1nnc(Cc2ccccc2)n1Cc1ccco1
-10.1%	CCCCc1nc2ccccc2c(N)c1CCC (tested in a mixture with another compound)
-6.4%	COc1ccccc1N1CCN(C(=O)/C=C/c2ccc(C)cc2)CC1
-6.2%	COc1ccc2c(c1)c(C(=O)CN1CCC(C(N)=O)CC1)c(C)n2C
-6.5%	CCN(CC)S(=O)(=O)c1ccc(NC(=O)CN(c2cccc(C)c2)S(C)(=O)=O)cc1
-24.4%	Cc1c(/C=N\NC(=O)C2COc3ccccc3O2)c2ccccc2n1C (stereo not given)
-3.0%	COC(=O)[C@H](Cc1ccccc1)NC(=O)N1CCCCC1C (stereo not given in full)
?	Cc1ccccc1NC(=O)Cn1nnc(-c2ccc(N3CCOCC3)cc2)n1
-2.8%	COc1ccccc1CNC(=O)CCNS(=O)(=O)c1cccc2nsnc12
-2.3%	CC(C)C(NC(=O)C1CCCCC1)C(=O)NC1CCN(Cc2ccccc2)CC1 (stereo not given)
-1.8%	CCN1C(=O)/C(=C\c2nc3ccccc3c(=O)n2-c2ccccc2)c2ccccc21
-3.8%	O=C(NCc1ccc2c(c1)OCO2)C1CCCN(C(=O)c2ccc(Cl)cc2)C1 (stereo not given)
-9.3%	O=C(O)Cn1nnn(-c2ccccc2)c1=S
-21.2%	Cc1cc(N=Cc2cc(Br)ccc2O)no1
-4.6%	O=C(CSc1nc2ccccc2o1)Nc1nncs1
-7.7%	O=S(=O)(NCCSc1ccccc1)c1cccs1
-4.6%	Cc1ccccc1C(=O)Nc1nc2n(n1)C(c1ccccc1)CC(=O)N2 (stereo not given)
-4.2%	Cc1c(NC(=O)CN2CCCc3ccccc32)c(=O)n(-c2ccccc2)n1C
?	COc1ccc(Cc2nc3c4c(ncn3n2)Oc2ccc3ccccc3c2C4c2ccc(OC)c(OC)c2)cc1 (stereo not given)
-7.1%	COc1ccc(-n2c(SCC(=O)N3CCCCC3)nc(O)cc2=O)cc1
0.7%	CSc1nnc([C@H](C)NC(=O)OC(C)(C)C)o1
-18.1%	Cc1cc(C)c(C(=O)CSC2=NC(N)=C(C#N)C3(CCCCC3)C2C(N)=O)cc1C (stereo not given)
-11.8%	CCC(=O)Nc1ccc(NC(=S)NC(=O)c2cc3ccccc3o2)cc1
-8.3%	Cc1ccc(CNC(=O)NC23CC4CC(CC(C4)C2)C3)cc1
0.2%	COc1ccccc1NC(=O)CN(c1ccccc1F)S(C)(=O)=O
-7.8%	CCN(C(=O)CCCC(=O)N(CC)c1ccccc1)c1ccccc1
?	COc1cc(-c2nc3c(c(C)nn3-c3ccccc3)c3cc(OC)c(OC)cc23)ccc1O
-12.0%	c1ccc(Oc2cccc(OCCCn3cncn3)c2)cc1
0.0%	CCOC(=O)c1cnn(-c2ncnc3c2oc2ccccc23)c1N
-0.9%	COc1ccc2ccccc2c1C(O)c1nccn1C (stereo not given)
-12.8%	COc1ccc(NC(=O)C(C)SCc2ccccc2)cc1OC (stereo not given)
-5.5%	CCCC(C(=O)N1CCOCC1)N1C(=O)C2C3C=CC(C3)C2C1=O (stereo not given)
-4.5%	CC(=O)Nc1cccc(NC(=O)c2cc3ccccc3o2)c1
-2.9%	O=C(Nc1cccc(F)c1)OC(CN1CCCCC1)C(F)(F)F (stereo not given)
-11.2%	O=C(CSc1nc2[nH]ncc2c(=O)[nH]1)NCc1ccccc1
-7.2%	CC(=NCCN1CCN(C(C)=C2C(=O)c3ccccc3C2=O)CC1)C1=C(O)CC(C)(C)CC1=O
?	O=C(/C=C/C(=O)Oc1ccccc1C(=O)O)Oc1ccccc1C(=O)O

(next part)
HPGD block	Molecule
-6.0%	Cc1ccc(N2CCN(C(=O)c3ccccc3NC(=O)/C=C\C(=O)O)CC2)cc1
-21.1%	c1ccc(Oc2cccc(CN3CCCCC3)c2)cc1
-11.3%	Cc1cc(NC(=O)NC2CCCN2S(=O)(=O)c2ccc(Cl)cc2)no1 (stereo not given)
-3.2%	CCOC(=O)c1cnc2ccc(Br)cc2c1NCCO
-4.1%	COc1ccc(-c2csc3nc(C)n(-n4cccc4)c(=O)c23)cc1OC
-15.9%	O=C(/C=C/c1ccco1)Nc1cccc2cccnc12
2.7%	CC(C)CC(NC(=O)C(NC(=O)OC(C)(C)C)C(C)C)C(=O)N1CCCC1C(N)=O (stereo not given)
-20.0%	CC1(C)CC(=O)C2=C(C1)NC(SCC(N)=O)=C(C#N)C21CCCCC1
-11.1%	CCCCC(c1nnnn1CC1CCCO1)N1CCN(Cc2ccccc2)CC1 (stereo not given)
-8.2%	COC(=O)Cc1ccc(NC(=S)NCC(C)C)cc1
?	CCOc1ccc2nc(NCCCNS(=O)(=O)c3ccc(C)cc3)c(C#N)cc2c1
-28.3%	NCCc1nnc(SCc2c(F)cccc2Cl)o1
-0.1%	CCOC(=O)NC(=O)C(=CNc1ccc(C)cc1)C(=O)NC(=O)OCC
-12.0%	Oc1ccccc1-c1nc(N2CCN(Cc3ccccc3)CC2)c2ccccc2n1
-7.1%	CCOCCCN1C(=O)CN(C2CCCCCC2)C(=O)C1c1ccc(OC)cc1 (stereo not given)
?	Cc1onc(-c2ccccc2Cl)c1C(=O)Nc1ccc(-c2cn3cccnc3n2)cc1
-11.3%	CCOC(=O)N1CCC(NC(=O)CCc2nc(-c3ccc(C)cc3)no2)CC1
1.6%	COc1ccccc1C(O)Cc1nc2ccccc2n1C (stereo not given)
4.6%	N=C(C[C@@H](O)COc1ccccc1-c1ccccc1)N1CCCCC1
-8.5%	CN(C)CCCc1c2ccccc2nc2ccc(Cl)cc12
-8.5%	Cc1ccc(OCC(=O)N/N=C/c2cn[nH]c2-c2ccc(Cl)c(Cl)c2)cc1
?	CCCCNC(=O)Nc1nnc(-c2ccccc2)o1
-7.2%	CC(NS(=O)(=O)c1ccccc1)C(=O)Nc1nccs1 (stereo not given)
-9.6%	Cc1cc(SC(C)C(=O)Nc2ncc(Cl)cc2Cl)nc2ccccc12 (stereo not given)
-12.9%	Cc1c([N+](=O)[O-])c([N+](=O)[O-])nn1CC(=O)NCCc1ccccc1
-11.5%	CC(C)CN(CC(C)C)c1nnc(N)s1
31.6µM*	CCOC(=O)c1ccc2c(c1)nc(SCC(=O)NC(C)C)n2CC
1.4%	COc1ccc(CC(=O)NNC(=O)c2cnccn2)cc1
?	CN1CCN(c2ncnc3ccc(-c4ccccc4C#N)cc23)CC1
?	O=c1cc(/C=C/c2ccccc2)oc2ccccc12
-2.9%	O=C(CN1C(=O)CSCC1=O)Nc1ccc2c(c1)OCO2
-2.6%	CCCn1c(=O)c2ccccc2n2c(SCC(=O)c3cc(C)n(CC4CCCO4)c3C)nnc12 (stereo not given)
-7.0%	CCCn1c(-c2ccc(F)cc2)cnc1SCC(=O)O
-0.4%	COc1ccc(/C=C(\NC(=O)c2ccccc2)C(=O)N/N=C/c2ccncc2)cc1
-18.9%	CC(=O)Nc1ccc(N/C=C/C(=O)c2ccc(C)o2)cc1
?	COC(=O)Cc1ccc2sc(-c3ccccc3)nc2c1
-1.8%	CCOC(=O)C(NC(C)=O)(Nc1ccc(S(=O)(=O)Nc2cc(C)on2)cc1)C(F)(F)F (stereo not given)
12.6µM*	Cc1ccc(-c2nc(NC(=O)CSc3cc(C)c4ccccc4n3)ns2)cc1
-5.9%	O=C(CSc1ncn[nH]1)Nc1ccccc1C(=O)O
-10.1%	O=C(CSc1nc2ccccc2o1)c1ccc2c(c1)OCCO2

Reprinted from the part before: 4 compounds, followed by the next part.
HPGD block	Molecule
-1.8%	CCOC(=O)C(NC(C)=O)(Nc1ccc(S(=O)(=O)Nc2cc(C)on2)cc1)C(F)(F)F (stereo not given)
12.6µM*	Cc1ccc(-c2nc(NC(=O)CSc3cc(C)c4ccccc4n3)ns2)cc1
-5.9%	O=C(CSc1ncn[nH]1)Nc1ccccc1C(=O)O
-10.1%	O=C(CSc1nc2ccccc2o1)c1ccc2c(c1)OCCO2
-9.5%	CC(C)NS(=O)(=O)c1ccc(OCC(=O)NCc2cccnc2)cc1
-2.3%	CC1CCCN(C(=S)SCC(=O)O)C1 (stereo not given)
-5.9%	CCOC(=O)Nc1sc(C(=O)N(C)C)c(C)c1C(=O)OCC
-5.5%	O=C(CN1C(=O)NC2(CCc3ccccc3C2)C1=O)Nc1ccc(Cl)cc1F (stereo not given)
-12.6%	Cc1csc(-c2cccnc2)n1
-9.2%	O=C(O)CC(Cc1ccc(Br)cc1)C(=O)O (stereo not given)
-12.9%	CSc1cccc(NC(=O)CSc2ncccc2C(=O)Oc2cccc([N+](=O)[O-])c2)c1
-10.2%	Cc1cccc(NC(=O)CN(C)S(=O)(=O)c2cccc3nsnc23)c1C
-16.1%	CCOC(=O)c1cc(-c2ccccc2)sc1NC(=S)Nc1cc(C)ccn1
-23.5%	CCN1CCN(C(=O)c2cc(-c3cccnc3)nc3ccc(Br)cc23)CC1
-12.6%	Nc1nc(-c2ccc(Cl)cc2Cl)cn1N
-9.0%	Cc1c(C(=O)N2CCOCC2)sc2ncnc(N3CCc4ccccc4C3)c12
-16.3%	O=C(NCCCn1ccnc1)c1cc(-c2ccc3c(c2)OCO3)on1
-1.5%	S=C(NCc1ccco1)N1CCN(C(c2ccccc2)c2ccccc2)CC1
-9.0%	Cc1cc(C(=O)N/N=C/c2c(C)n(C)c3ccccc23)n[nH]1
-20.7%	CCN(CC)CCNc1ncnc2c1sc1nc(N3CCOCC3)c3c(c12)CC(C)(C)SC3
-9.6%	Cc1cccc(C2CC(c3ccc(F)cc3)Nc3nc(N)nn32)c1 (stereo not given)
-15.4%	COc1cccc(/C=N/NC(=O)c2c(-c3ccccc3)noc2C)c1O
-8.6%	O=C(O)c1cccc(Cl)c1Cl
-27.4%	CCc1c(C)nc(SCC(=O)N2CCc3ccccc32)[nH]c1=O

Random excerpt: 6 records from the list
HPGD block	Molecule
-16.1%	CCOC(=O)c1cc(-c2ccccc2)sc1NC(=S)Nc1cc(C)ccn1
-16.3%	O=C(NCCCn1ccnc1)c1cc(-c2ccc3c(c2)OCO3)on1
-12.6%	Cc1csc(-c2cccnc2)n1
-15.4%	COc1cccc(/C=N/NC(=O)c2c(-c3ccccc3)noc2C)c1O
-5.5%	O=C(CN1C(=O)NC2(CCc3ccccc3C2)C1=O)Nc1ccc(Cl)cc1F (stereo not given)
-9.5%	CC(C)NS(=O)(=O)c1ccc(OCC(=O)NCc2cccnc2)cc1

More compounds follow:
HPGD block	Molecule
-2.9%	CC1(C)CC(Nc2ccc(Nc3ccccc3)cc2)CC(C)(C)N1
-1.4%	COc1ccccc1Oc1ccc(S(=O)(=O)Nc2cccnc2)cc1
15.8µM*	COCCNC(=O)CCCCCN1C(=O)CCC1=O
-21.1%	Cc1ccc2cc(CCNC(=O)c3cccs3)c(=O)[nH]c2c1C
-19.0%	COc1cc(NC(=O)c2cccs2)c(C(=O)OCC(=O)NC(C)c2ccccc2)cc1OC (stereo not given)
-10.2%	Nc1nc(-c2nc3ccccc3[nH]2)cs1
-10.1%	CCOc1ccc(C(=O)OCC(=O)c2c(N)n(C)c(=O)n(C)c2=O)cc1OCC
-15.7%	COc1ccc(C2CC(=O)c3cnc(NC(=O)c4ccccc4OC)nc3C2)c(OC)c1 (stereo not given)
-7.3%	N#CCCn1c(C2CCCCC2)nc2ccccc21
-8.1%	CCOc1ccc(NC(=O)N2CCC(c3ccc(C)cc3)C2)cc1 (stereo not given)

Bioassay records (PubChem BioAssay)
